Screening results (PubChem)
MenB inh = inhibitors of Mycobacterium tuberculosis MenB enzyme | MenB enzyme assay, absorbance read-out; some hits fall short of the stated cut | P9WNP5 | inhibition, %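 (about 12 µg/mL by stock and volumes)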 | AID 540299 | hit rate 0.43% among 100,000;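 active = mean of two replicates above 30%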;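 also: 0% = no compound and 100% = wells with inactive enzyme; the first replicate is given; strong numbers were not always called active; inactives centre near -10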
Polio RdRp inh = poliovirus RNA polymerase inhibition | P03300 | poliovirus polymerase elongation, fluorescence polarization; active compounds read low | % elongation, % (compound at 16.7 µg/mL) | hit rate 0.66% among 150,000; in the data active = % elongation below about 90%; also: some results filed as inactive read as strong as hits
Target sequence (P03300 1749-2209 limits assumed): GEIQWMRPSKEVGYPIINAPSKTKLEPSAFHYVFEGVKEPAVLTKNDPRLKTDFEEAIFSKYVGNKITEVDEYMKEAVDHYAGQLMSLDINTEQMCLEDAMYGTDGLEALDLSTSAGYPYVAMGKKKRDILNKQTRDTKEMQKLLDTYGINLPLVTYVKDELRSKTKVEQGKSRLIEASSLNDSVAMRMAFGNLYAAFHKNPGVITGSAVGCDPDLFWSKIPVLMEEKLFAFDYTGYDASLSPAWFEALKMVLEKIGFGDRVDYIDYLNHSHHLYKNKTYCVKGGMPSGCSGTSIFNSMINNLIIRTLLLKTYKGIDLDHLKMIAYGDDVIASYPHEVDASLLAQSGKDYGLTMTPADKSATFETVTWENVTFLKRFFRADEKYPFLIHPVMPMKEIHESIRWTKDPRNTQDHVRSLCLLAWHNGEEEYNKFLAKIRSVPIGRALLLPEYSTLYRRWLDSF
MbtI inh = blocks the Mycobacterium tuberculosis siderophore enzyme MbtI; purified MbtI enzyme, fluorescence intensity read-out; inhibition, %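 (about 17 µg/mL by stock and volumes)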; hit rate 0.89% among 100,000; AID 493033;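 active = above 50% in both replicates, above 80% if mildly self-fluorescent; inactive = the rest, strongly fluorescent compounds included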;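 also: 0% = mean of negative and 100% = mean of positive controls; one replicate is shown; some compounds called inactive have numbers as strong as hits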
Target sequence (P9WFX0 whole entry, looked up): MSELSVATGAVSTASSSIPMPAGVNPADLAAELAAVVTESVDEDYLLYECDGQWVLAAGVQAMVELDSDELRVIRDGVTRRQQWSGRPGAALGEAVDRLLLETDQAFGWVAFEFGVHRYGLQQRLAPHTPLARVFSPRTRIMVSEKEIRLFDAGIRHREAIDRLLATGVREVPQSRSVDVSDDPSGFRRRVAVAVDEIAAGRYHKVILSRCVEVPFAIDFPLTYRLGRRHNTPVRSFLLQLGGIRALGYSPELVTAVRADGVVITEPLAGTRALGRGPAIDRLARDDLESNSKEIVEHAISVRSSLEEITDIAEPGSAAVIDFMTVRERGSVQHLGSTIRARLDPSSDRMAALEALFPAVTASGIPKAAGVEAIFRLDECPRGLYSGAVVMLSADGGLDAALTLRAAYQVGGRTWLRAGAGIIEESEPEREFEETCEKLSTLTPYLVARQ
Polio RdRp inh intensity = further read-out of Polio RdRp inh, marked with its call; % elongation; measured here: total intensity read-out; formula for this scale not given here;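 total fluorescence in place of polarization; lower means less elongation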
The depositor's hits bear a star; · = no result given. Not a hit list. About 1.9% of those tested had a hit in this group.

SMILES | MenB inh | Polio RdRp inh | Polio RdRp inh intensity | MbtI inh
Cc1cc(C(=O)COC(=O)[C@@H]2CCCN2C(=O)c2cccs2)c(C)n1-c1ccc2c(c1)OCCO2 | -25 | 105 | 110 | -6
COc1ccc(C(=O)COC(=O)c2cccc(S(N)(=O)=O)c2)cc1 | -11 | 101 | 106 | 6
Cc1cccc(OCC(=O)NC(Cc2c[nH]c3ccccc23)C(=O)O)c1 (stereo not given) | · | 103 | 108 | -18
CC(C)(C)c1ccc(-c2nn3cnnc3s2)cc1 | 17 | 101 | 98 | 12
Cc1ccc[n+](Cc2cnc(C)nc2N)c1 | 6 | 102 | 109 | -10
CCn1nnc2c(Nc3cccc(C)c3)ncnc21 | -28 | 106 | 112 | -6
OC1(C(F)(F)F)CC(c2ccc(F)cc2)=NO1 (stereo not given) | -20 | 103 | 103 | 5
CCn1c(C)cc(O)c(C(c2cccc(OC)c2)N2CCN(c3ccccn3)CC2)c1=O (stereo not given) | -15 | 103 | 109 | 7
Cc1ccc2nc3n(c(=O)c2c1)CCCc1nn(-c2nc4ccccc4s2)c(N)c1-3 | 10 | 105 | 100 | 9
COc1ccc(-c2cc(C(F)(F)F)n3ncc(C(=O)NC(C)(C)C)c3n2)cc1 | -17 | 91 | 153 | ·
CC(C)C(NS(=O)(=O)c1ccc2c(c1)OCCO2)C(=O)OCN1C(=O)c2ccccc2C1=O (stereo not given) | 0 | 103 | 106 | -4
COc1ccc(N(Cc2coc(-c3ccccc3)n2)S(=O)(=O)c2ccccc2)cc1 | 4 | 98 | 109 | 3
Cc1ccccc1N=C1Nc2ccc3ccccc3c2C1=O | -31 | 102 | 105 | -3
CN(C)C(CNC(=O)c1cncc(Br)c1)c1cccs1 (stereo not given) | -1 | 104 | 109 | 6
C[C@@]12CCC(=O)[C@]1(C)CCC2=O | -11 | 104 | 105 | -5
Cn1cccc1C=NN1CCN(Cc2ccccc2)CC1 | 3 | 102 | 101 | 9
NC(=O)COC(=O)c1ccc(S(=O)(=O)Nc2ccccc2)cc1 | -19 | 106 | 101 | 2
O=C(NCCc1ccccc1)c1cccc(N2C(=O)C3CC=CCC3C2=O)c1 (stereo not given) | -4 | 99 | 103 | 14
O=C(Nc1ccc(Br)c(Cl)c1)C1CC1 | 5 | 100 | 97 | ·
CCc1cccc2c(=O)c(C(=O)N3CCCC3)c[nH]c12 | 0 | 103 | 103 | 17
CC(Sc1ccc(Cl)cc1)C(=O)NN=C1CCN(C)CC1 (stereo not given) | -6 | 101 | 104 | -12
Cc1nn(Cc2ccc(C(=O)Nc3cc(Cl)cc(Cl)c3)o2)c(C)c1Br | 7 | 100 | 100 | -1
CCOC(=O)C1=CN(C)C=C(C(=O)OCC)C1c1ccc(C)c(Br)c1 | -79 | 101 | 103 | -57
COc1ccc(C(=O)n2cnnc2N)cc1 | 23 | 98 | 100 | 4
Cc1ccccc1NC1=NC(C)(C)CS1 | · | 98 | 100 | -5
Cc1ccc(-n2c(C)ccc2C)cc1 | · | 105 | 104 | -2
COc1cccc(CN2COc3ccc4c(oc(=O)c5ccccc54)c3C2)c1 | 18 | 100 | 104 | -2
CSc1cccc(NC(=O)CN(C)S(=O)(=O)c2ccccc2)c1 | -4 | 102 | 103 | -18
N#C/C(=C1/CCCN1)c1nc2ccccc2s1 | -18 | 106 | 115 | 11
Cc1ccc(/C=C/C(=O)O)c(Br)c1 | 1 | · | · | 10
CN(Cc1n[nH]c(=S)n1C)S(=O)(=O)c1ccccc1 | -17 | 100 | 101 | 23
CCOC(=O)c1ccc(-c2coc3cc(O)cc(O)c3c2=O)o1 | 1 | 105 | 109 | ·
O=C(NCCCN1CCCC1)c1noc2c1CCCCC2 | -30 | 104 | 104 | -27
Cc1ccc(NC(=O)c2nccnc2C(=O)O)cc1 | -7 | 102 | 102 | -4
CSc1nnc(SC(C)C(=O)Nc2c(C)cccc2C(C)C)n1N (stereo not given) | -7 | · | · | 0
CN1Cc2cc(CN3C(=O)c4ccccc4C3=O)ccc2NC1=O | 0 | 108 | 108 | ·
Cc1ccc(C2C=C(c3ccc(C(C)C)cc3)Nc3ncnn32)cc1 (stereo not given) | -17 | 101 | 108 | -2
Cn1ncc2c(O/N=C(\N)c3ccc(C(F)(F)F)cc3)ncnc21 | -13 | 103 | 103 | -1
CCc1ccc(NC(=O)Cn2c(=O)n(CCC(=O)NCc3ccco3)c(=O)c3ccccc32)cc1 | 17 | 98 | 103 | -5
COc1ccc(-n2c(SCC(=O)/C(C#N)=C(\C)N)nc3ccccc3c2=O)cc1OC | 11 | 99 | 103 | -17
O[N+]1=CC=CCC1=S.On1ccccc1=S.[Zn] | 2 | 101 | 102 | 15
CCCc1nn2c(=O)cc(COc3ccc(NC(=O)C(C)C)cc3)nc2s1 | 22 | 99 | 103 | 3
CCn1c(=N)n(CCOc2ccc(C)cc2)c2ccccc21 | -15 | 105 | 108 | 0
Cc1cc(-c2ccc(C(C)C)c(S(=O)(=O)NCCN3CCC(C)CC3)c2)on1 | -18 | 100 | 101 | -15
O=C(Nc1cccc(-c2nc3ccccc3[nH]2)c1)c1ccccc1 | -17 | 106 | 107 | ·
Fc1ccc(CSc2nc(N3CCOCC3)nc(N3CCOCC3)n2)cc1 | -38 | 102 | 103 | -10
OCc1ccccc1CNc1cccc2ccccc12 | -15 | 98 | 107 | ·
CCOC(=O)Cn1nc(NC(=O)c2ccc(C(=O)OC)cc2)cc1C | 3 | 99 | 102 | 6
CN(C)C(=S)Nc1cccc2ccccc12 | -22 | 103 | 107 | 1
O=S1(=O)CCC(NC(=S)SCCOc2ccccc2OCCO)C1 (stereo not given) | 19 | 100 | 103 | 0
O=C(Cn1nnc2ccccc2c1=O)c1ccccc1 | 1 | 104 | 100 | -6
COC(=O)c1ccccc1NC(=O)c1cccs1 | 2 | 101 | 101 | 6
O=C(NCc1ccc(Cl)cc1)c1ccc(CS(=O)c2cccc(Cl)c2)o1 (stereo not given) | -15 | 102 | 101 | -5
Cc1nn(CC(=O)NCc2cccnc2)c(=O)c2ccccc12 | -44 | 102 | 104 | 10
CCCN(CCC)C(=O)c1cccc2c1-c1ccccc1C2=O | -3 | 105 | 98 | -15
Cc1ccc(NC(=O)c2cccc3c2C(=O)N(Cc2cccnc2)C3)cc1F | -19 | 103 | 103 | -5
Nc1nnc(SCC(=O)NC2CCCCC2)s1 | -37 | 104 | 101 | -2
O=C(CSc1nnc2[nH]c(=O)ccn12)NCc1ccc(F)cc1 | 4 | 100 | 98 | 0
C=CCNC(=O)c1ccc(COc2ccccc2Cl)o1 | 1 | 100 | 101 | -7
Cn1c(=O)n(C2CCCCC2)c(=O)c2ccccc21 | -34 | 108 | 100 | -21

Individual results from the list.
Under Polio RdRp inh, `Nc1nnc(SCC(=O)NC2CCCCC2)s1` shows 104
Under Polio RdRp inh, `O=C(NCc1ccc(Cl)cc1)c1ccc(CS(=O)c2cccc(Cl)c2)o1` (stereo not given) shows 102
Under MbtI inh, `Cc1ccc(NC(=O)c2cccc3c2C(=O)N(Cc2cccnc2)C3)cc1F` shows -5
Under MbtI inh, `Cn1c(=O)n(C2CCCCC2)c(=O)c2ccccc21` shows -21
Under MenB inh, `O=S1(=O)CCC(NC(=S)SCCOc2ccccc2OCCO)C1` (stereo not given) shows 19
Under Polio RdRp inh intensity, `O=C(Cn1nnc2ccccc2c1=O)c1ccccc1` shows 100

More structures follow.
SMILES | MenB inh | Polio RdRp inh | Polio RdRp inh intensity | MbtI inh
CCn1c(=O)cc(OCC(=O)O)c2ccccc21 | 2 | 100 | 98 | 8
O=C(CN1CCN(C(=O)c2cccnc2Sc2ccc(Cl)cc2)CC1)N1CCCC1 | 5 | 102 | 101 | 4
COc1ccccc1C1=NOC(C(=O)NC2CCCC2)C1 (stereo not given) | 3 | 103 | 101 | 3
COc1cc2c(cc1OC)C(C)N(C(=O)c1nn(C)c3c1CSc1ccccc1-3)CC2 (stereo not given) | -31 | 104 | 109 | 2
O=C1c2ccccc2C(=O)N1CN1CCC(O)(c2ccc(Cl)cc2)CC1 | 4 | 106 | 109 | -8
O=c1cc(-c2ccc(O)cc2)oc2c(C3O[C@H](CO)[C@@H](O)[C@H](O)[C@H]3O)c(O)cc(O)c12 (stereo not given in full) | 2 | 99 | 100 | -42
COc1cc(/C=C2/SC(=NCc3ccccc3)N(Cc3ccccc3)C2=O)cc(OC)c1OC | -16 | 113 | 113 | ·
CCCn1c(SCC(=O)OC(C)(C)C)n[nH]c1=O | -32 | 100 | 94 | 3
CCc1ccc(-c2nc(CSCC(=O)N3CCc4ccccc4C3)c(C)o2)cc1 | -26 | 101 | 109 | -1
Nc1cccc2c1C(=O)N(CC(=O)NC13CC4CC(CC(C4)C1)C3)C2=O | -28 | 95 | 114 | -17
COC(=O)c1ccc2c(=O)n(NC(C)=O)c(=S)[nH]c2c1 | -25 | 102 | 105 | 28
CC1(C)Cc2ccccc2C(N/N=C/c2ccco2)=N1 | -46 | 104 | 102 | 0
Cc1c(C(=O)c2ccccc2)c(=O)n(C)c(=O)n1C | 7 | 98 | 100 | 3
O=C(NCC1CCCO1)c1cc2c(s1)CCC2 (stereo not given) | · | 103 | 102 | 10
CCOc1nc(NC(=O)NC(=O)c2c(F)cccc2F)nc(-c2ccccc2)n1 | -22 | 101 | 108 | ·
C/C=C/C(=O)Nc1ccccc1OC | -31 | 101 | 104 | 5
Cn1c2ccc(F)cc2c2nc3n(c(=O)c21)CCS3 | 10 | 103 | 100 | 90
N#CCCn1c(SCc2csc(-c3ccccc3)n2)nc2ccccc21 | -6 | 107 | 96 | 15
O=C1CNC(=O)/C1=C\c1ccc(O)cc1 | -119 | 106 | 112 | 14
COc1ccc2cc(C#N)c(=S)[nH]c2c1 | -217 | 97 | 97 | 101
CCOc1ccc(S(=O)(=O)Nc2ccccc2C(=O)Nc2nn[nH]n2)cc1 | 0 | 104 | 107 | -34
COc1ccc(-c2cc(=O)c3ccc(OC)cc3o2)cc1 | -9 | 101 | 103 | 35
CCSc1nc2c(c(=O)[nH]c(=O)n2C)n1Cc1ccc(C)cc1 | -8 | 104 | 106 | ·
CCN(CC)C(=S)C(=O)Nc1cc(C(F)(F)F)cc(C(F)(F)F)c1 | -26 | 86* | 76* | ·

One compound at a time, from the list above. Values in the order: MenB inh | Polio RdRp inh | Polio RdRp inh intensity | MbtI inh
Profile of CCOc1ccc(S(=O)(=O)Nc2ccccc2C(=O)Nc2nn[nH]n2)cc1 : 0 | 104 | 107 | -34
Profile of N#CCCn1c(SCc2csc(-c3ccccc3)n2)nc2ccccc21 : -6 | 107 | 96 | 15
Profile of CCOc1nc(NC(=O)NC(=O)c2c(F)cccc2F)nc(-c2ccccc2)n1 : -22 | 101 | 108 | ·

(further entries)
SMILES | MenB inh | Polio RdRp inh | Polio RdRp inh intensity | MbtI inh
NC(CC(=O)O)c1ccc2c(c1)OCO2 (stereo not given) | 15 | 100 | 102 | -8
O=C(c1ccccc1)C(Sc1nc2ccccc2[nH]1)c1ccccc1 (stereo not given) | -42 | 103 | 103 | -2
Cc1cc(C)nc(NC(=S)c2ccc(NC(=O)/C=C/C(=O)O)cc2)n1 | -4 | 105 | 109 | -11
CCn1c2ccccc2c2cc(C3C(C#N)=C(N)Oc4n[nH]c(C(C)C)c43)ccc21 (stereo not given) | -8 | 102 | 101 | 21
CC1CCCN(C(=O)COC(=O)c2cc(S(=O)(=O)N3CCCC3)ccc2O)C1 (stereo not given) | -28 | 105 | 103 | 127
Cc1ccc(CNC(=O)CCCn2c(=O)c3sccc3n(Cc3ccc(F)cc3Cl)c2=O)cc1 | -1 | 101 | 106 | -16
CC(=O)N1CCC(O)(c2ccc3c(c2)OCO3)CC1 | 18 | 101 | 105 | -8
CCN(CC)c1ccc(C(=O)c2ccc(N(CC)CC)cc2)cc1 | -57 | 99 | 101 | 34
C/C(=N\OC(=O)c1ccccc1)c1cc(-c2ccccc2)no1 | 0 | 102 | 105 | -6
O=C(O)CSc1ccccc1Br | · | 100 | 103 | -8
Brc1ccc(-c2nnc3sc(CN4CCC5(CC4)OCCO5)cn23)cc1 | -18 | 103 | 106 | -1
COC(=O)c1sc(NC(=O)c2ccccc2)c(C#N)c1C | -11 | 106 | 108 | ·

As a short view, some entries already given.
SMILES | MenB inh | Polio RdRp inh | Polio RdRp inh intensity | MbtI inh
Brc1ccc(-c2nnc3sc(CN4CCC5(CC4)OCCO5)cn23)cc1 | -18 | 103 | 106 | -1
COC(=O)c1sc(NC(=O)c2ccccc2)c(C#N)c1C | -11 | 106 | 108 | ·

Further entries.
SMILES | MenB inh | Polio RdRp inh | Polio RdRp inh intensity | MbtI inh
N/C(=N\OC(=O)CCN1C(=O)c2ccccc2C1=O)c1ccncc1 | -9 | 101 | 104 | -2
Cc1ccc(CN(C)Cc2cc(=O)oc3cc4c(cc23)CCC4)o1 | -15 | 100 | 105 | 3
Cc1nc2ccc(NS(=O)(=O)c3ccccc3C(F)(F)F)cc2o1 | -13 | 99 | 101 | 3
O=C(CN1C(=O)COc2ccccc21)N(Cc1ccccc1)Cc1ccccn1 | -59 | 104 | 102 | -3
CN1CCN2c3ccccc3Cc3ccccc3C2C1 (stereo not given) | -1 | 98 | 100 | -7
CN(Cc1cccc(Cl)c1)Cc1cc2c(cc1O)CCC2 | -27 | 96 | 83 | 9
Cc1ccc(NC(=O)C2CCCN2S(=O)(=O)c2ccc3nc(-c4ccccc4)[nH]c3c2)cc1 (stereo not given) | 0 | 101 | 95 | 97
c1cncc(C2Nc3ccccc3-n3cccc32)c1 (stereo not given) | -7 | 102 | 103 | -15
Cc1ccc(C2OC3=C(C(=O)CC(C)(C)C3)C(N)=C2C#N)o1 (stereo not given) | -5 | 104 | 107 | -14
O=C(N/N=C/c1ccco1)C1c2ccccc2Oc2ccccc21 | 14 | 102 | 103 | 5
